# TRPV1 PAM: HTS Assay for Compounds that Act as Potentiators of the Vanilloid Receptor 1; Transient receptor potential cation channel subfamily V member 1 (Homo sapiens), Q8NER1; TRPV1-expressing cells, Fluo-8 calcium influx, capsaicin EC20 potentiation; host cell line not named in the record; control for the full effect not named in the record; potentiation, % at 8.33 µM; hit rate 0.02% among 320,000; AID 540277, 2011; active means potentiation above 80%; inconclusive means 30% to 80%; inactive means below 30%; further: 0% is about no effect
# Target sequence (Q8NER1 whole entry, looked up): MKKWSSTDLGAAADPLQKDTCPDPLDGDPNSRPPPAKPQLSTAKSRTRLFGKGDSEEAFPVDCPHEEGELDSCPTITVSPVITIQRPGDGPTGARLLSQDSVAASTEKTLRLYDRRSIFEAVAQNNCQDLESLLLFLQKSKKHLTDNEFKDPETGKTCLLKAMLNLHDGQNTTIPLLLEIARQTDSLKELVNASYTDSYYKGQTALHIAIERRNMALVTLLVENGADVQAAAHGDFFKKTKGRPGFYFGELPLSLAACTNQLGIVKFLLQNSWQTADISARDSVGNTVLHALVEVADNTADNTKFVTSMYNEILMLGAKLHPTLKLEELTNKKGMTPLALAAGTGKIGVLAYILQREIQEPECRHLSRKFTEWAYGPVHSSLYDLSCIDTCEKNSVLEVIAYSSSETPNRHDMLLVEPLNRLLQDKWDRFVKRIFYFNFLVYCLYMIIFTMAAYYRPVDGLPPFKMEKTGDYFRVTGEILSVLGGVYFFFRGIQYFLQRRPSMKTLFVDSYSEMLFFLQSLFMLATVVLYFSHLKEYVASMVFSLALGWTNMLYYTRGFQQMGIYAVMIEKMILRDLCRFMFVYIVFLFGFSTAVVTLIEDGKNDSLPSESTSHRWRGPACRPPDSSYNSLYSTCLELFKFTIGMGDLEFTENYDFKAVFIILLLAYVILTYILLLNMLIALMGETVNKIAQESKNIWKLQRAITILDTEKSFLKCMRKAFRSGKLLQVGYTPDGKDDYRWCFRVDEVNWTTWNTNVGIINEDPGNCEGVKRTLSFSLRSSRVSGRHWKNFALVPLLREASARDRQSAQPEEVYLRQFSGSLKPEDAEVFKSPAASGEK
#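 TRPV1-expressing cells were cultured overnight at 35.5C and loaded with Fluo-8 calcium dye for 40 to 90 min at room temperature. After a 10 s baseline, compound was added and calcium influx was read kinetically for 3 min (ex 480/em 520 nm).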
# TRPML1 blocker: qHTS for Inhibitors of the Human Mucolipin Transient Receptor Potential 1 (TRPML1) | hit rate 0.02% among 390,000 | AID 624415, 2012 | activity change, negative = inhibition, % (no concentration beside the values) | TRPML1-inducible cells, Ca2+ dye fluorescence, FDSS; active compounds read low; inhibition of EC80 agonist-evoked calcium signal; in the data active means activity change below about -50%; inconclusive means about -30% to -50%; inactive means above about -30%;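 further: stimulus is agonist 54-4 at its EC80 concentration; on the % scale 0 is the no-effect control and ±100 the full control effect; compound concentration not given in the record; the text of the record puts the active cut at -80%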
#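 Calcium fluorescence in TRPML1-DL cells induced overnight with Tet: a 110 s read after compound pin addition, then a 110 s antagonist read after challenge with 54-4 at 4 uM final (EC80).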
# Menin-MLL FL inh: qHTS Assay for Inhibitors Targeting the Menin-MLL Interaction in MLL Related Leukemias: Competition With Fluorescein Labeled MLL-derived Peptide; Fluorescence polarization, fluorescein-MLL peptide displacement from menin; FP activity change, % at 61.4 µM; 290,000 tested, under 10 active; inconclusive = falling polarisation curve, or a change in total fluorescence; inactive = total fluorescence flat and polarisation flat or rising; no compound was filed as active; the % refers to the polarisation; negative = inhibition;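 further: % of control where 0% means no effect; inhibitors lower the polarisation; unlabelled MLL peptide was the positive control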
# ClpP mod: qHTS Assay for Activators of ClpP; ATP-dependent Clp protease proteolytic subunit (Bacillus subtilis (strain 168)), P80244; purified B. subtilis ClpP, FRET peptide cleavage, 20 min; Potency, µM (top dose mostly 57.5 µM), without a hit: top-dose activity change, negative = active; hit rate 1.9% among 340,000; AID 651965, 2013; active = well fitted falling curve with a large enough effect; inconclusive = small, poorly fitted or top-dose-only effect; inactive = no such curve, though single readings can be large or run the other way; further: potency means the concentration at half of the fitted maximal effect; the source files actives as falling curves though it sought activators and does not explain the sign; nearly all actives have a fitted effect of over 65% in size; many hits overshoot -100%
# Target sequence (P80244 whole entry, looked up): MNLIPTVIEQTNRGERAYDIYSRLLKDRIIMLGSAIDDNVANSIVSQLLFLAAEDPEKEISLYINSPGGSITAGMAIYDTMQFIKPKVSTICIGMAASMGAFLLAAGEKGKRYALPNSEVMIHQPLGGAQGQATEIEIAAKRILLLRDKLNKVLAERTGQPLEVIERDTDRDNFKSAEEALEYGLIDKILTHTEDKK
#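 Buffer: 100 mM Tris/HCl pH8, 100 mM KCl, 0.05% low protease BSA, 2.5% glycerol, 0.01% Tween-20. ClpP 10 microg/mL final; 20 min RT; delta FRET normalized to ADEP and DMSO controls.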
# Sfp PPTase inh: qHTS Assay for Inhibitors of Bacillus subtilis Sfp phosphopantetheinyl transferase (PPTase); 4'-phosphopantetheinyl transferase ffp (Bacillus subtilis), Q9F4F7; Biochemical Sfp PPTase activity, qHTS; Potency, µM, inactives show max response, negative = inhibition, hits mostly inhibitors; hit rate 3.5% among 310,000; AID 1490, 2009; active means well fitted inhibition curve with a large enough effect; inconclusive means small, poorly fitted or top-dose-only effect, or another doubt; inactive means no such curve, though single readings can be large or run the other way;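 further: the enzyme is Sfp with the accession as filed and its product quenches rhodamine fluorescence; potency means the concentration at half of the fitted maximal effect; 0% = enzyme reaction without inhibitor and -100% = no enzyme wells; top concentration of the series not given in the record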
#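 After 15 min at room temperature with compound, 15 nM Sfp received 5 uM rhodamine-CoA plus 12.5 uM BHQ-2-ybbR (50 mM Hepes pH 7.6, 10 mM MgCl2). Rate came from the fluorescence difference over 30 min, ex 525/em 598 nm.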
# TRPML1 ag: qHTS for Agonists of the Human Mucolipin Transient Receptor Potential 1 (TRPML1) | activation, % (no concentration beside the values) | hit rate 0.12% among 410,000 | Mucolipin-1 (Homo sapiens), Q9GZU1 | AID 624414, 2012 | TRPML1-expressing cells, Ca2+ dye fluorescence, FDSS; host cell line not named in the record; reference of the full effect not given here; in the data active = activation above about 50%; inconclusive = about 30% to 50%; inactive = below about 30%; further: 0% is about no effect; the text of the record puts the active cut at 80%
#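 Calcium fluorescence on an FDSS kinetic reader gave the read-out. Tet-induced TRPML1-DL cells were plated overnight, dye-loaded (Ca8 with quencher, 45-90 min, room temperature, dark), then read 110 s after compound addition, and again 110 s after 4uM final 54-4 (EC80).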
# PINK1 modulator: A Quantitative High throughput Screen to Identify Chemical Modulators of PINK1 Expression; PINK1 immunofluorescence, high-content cytometry, 24 h; Potency, µM (series often up to 76.6 µM), for the others: top-dose activation (PINK1 increase), actives largely listed as activators; hit rate 0.2% among 410,000; active = well fitted activation curve with a large enough effect; inconclusive = small, poorly fitted or top-dose-only effect; inactive = flat fitted curve, though single readings scatter; cell line not stated here;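 further: potency means the concentration at half of the fitted maximal effect; % of control where 0% means no effect; nearly all actives have a fitted effect of over 65% in size; a mitochondrial uncoupler was the plate control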
#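 Stable cell line treated 24 h with compounds at 5 concentrations (CCCP controls), then fixed and immunostained for PINK1 plus nuclear and cell stains; PINK1 immunofluorescence quantified by laser-scanning microplate cytometry.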
# An asterisk follows results filed as active; ? = inconclusive; · = not tested or not shown; & = joins results of further samples; [ ] = another dose, or the depositor's remark.
SMILES,TRPV1 PAM,TRPML1 blocker,Menin-MLL FL inh,ClpP mod,Sfp PPTase inh,TRPML1 ag,PINK1 modulator
Cc1[nH]n(C(N)=S)c(=O)c1N=Nc1ccc(Cl)cc1Cl,21,13,6.3,-0.8%,8%,1.0,2.6%
Cc1cccc(CSc2ccc(-c3cccs3)nn2)c1,0,?,2.1,-2.3%&-2.0%,-4%,3.4&1.6,0.1%&5.7%
O=C(NCc1ccncc1)C(=O)N/N=C/c1ccccc1OCc1ccccc1,-13,6,-1.1,·,19%,-0.8,3.3%
O=C(Nc1ccccc1Cl)C1CCN(Cc2cnn(-c3ccccc3)c2-n2cccc2)CC1,-2,-2,5.9,-1.4%,-1%,2.1,-4.3%
CCOC(=O)N1CCC(NC(=O)CC2C(=O)NCCN2Cc2cccc(F)c2F)CC1 (centres undefined),10,-4,·,-6.3%,7%,-0.1,-1.8%
O=C(NC1CC(=O)N(c2ccccc2)C1)C(c1ccccc1)c1ccccc1 (centres undefined),·,41,·,1.5%,·,2.9,1.5%
COc1ccccc1CN1CC(C(=O)NCc2cc(C)on2)CCC1=O (centres undefined),-22,4,·,0.2%,16%,-0.5,1.2%
Cc1ccc(CNC(=O)CCSCc2ccccc2F)cc1,-1,39&1,0.9,-0.3%,-4%,1.9&3.7,1.6%&0.6%
Cc1ccc(C(=O)NNC(=O)CCC(=O)Nc2cccc(Cl)c2C)cc1,24,-3,-0.1,1.4%,79µM*,1.1,6.9%
COc1ccc(-c2cn3nc(N4CCC(C(=O)Nc5cccc(OC)c5)CC4)sc3n2)cc1,·,-5,·,-2.9%,·,1.5,1.1%
COc1ccc(CNCCS(=O)(=O)NC2CCCC2)cc1,·,28,·,-3.5%,·,-1.0,-0.8%
CCC(Cc1ccccc1)NC(=O)c1oc(=O)c2ccccc2c1-c1ccccc1 (centres undefined),·,6,·,-2.4%,·,0.5,0.2%
COCc1ccc(C(=O)N2CCCC(CCC(=O)NCc3ccccc3F)C2)o1 (centres undefined),-1,-14,1.6,·,12%,0.7,6.4%
O=C(c1ccc(NS(=O)(=O)/C=C/c2ccccc2)cc1)N1CCCCC1,2,0,·,·,·,1.5,0.5%
CCCCCC(=O)NNC1CC(=O)N(c2ccccc2)C1=O (centres undefined),7,-12,2.5,·,14%,0.2,0.6%
Cn1nnc(C(O)CNCc2ccc(Cl)cc2)n1 (centres undefined),-5,-10,-4.2,·,6%,0.0,1.3%
CSc1ccc(-c2nnc(NC(=O)c3ccc4c(c3)OCCO4)o2)cc1,·,4,·,3.8%,·,-0.6,1.0%
CN(Cc1ccccc1)c1ccc2nnc(-c3ccccc3)n2n1,26,15,-3.1,-4.1%,-29%,0.8,2.6%
O=C(c1ccco1)N(CCC(c1ccccc1)c1ccco1)Cc1ccco1 (centres undefined),-10,18,?,-2.0%,?,0.1,1.2%
Cc1cc(C)c(S(=O)(=O)Cc2ccccc2)c(Cl)n1,8,-11,-6.0,?,16%,-0.6,0.7%

# Three structures already listed, arranged by formula weight, ascending.
SMILES,TRPV1 PAM,TRPML1 blocker,Menin-MLL FL inh,ClpP mod,Sfp PPTase inh,TRPML1 ag,PINK1 modulator
Cc1ccc(CNC(=O)CCSCc2ccccc2F)cc1,-1,39&1,0.9,-0.3%,-4%,1.9&3.7,1.6%&0.6%
CSc1ccc(-c2nnc(NC(=O)c3ccc4c(c3)OCCO4)o2)cc1,·,4,·,3.8%,·,-0.6,1.0%
O=C(c1ccc(NS(=O)(=O)/C=C/c2ccccc2)cc1)N1CCCCC1,2,0,·,·,·,1.5,0.5%

# Going on with the list.
SMILES,TRPV1 PAM,TRPML1 blocker,Menin-MLL FL inh,ClpP mod,Sfp PPTase inh,TRPML1 ag,PINK1 modulator
CCOc1ccc(N(CC(=O)NCc2ccccc2C)S(C)(=O)=O)cc1,11,-5,2.4,1.5%,2%,0.0,0.1%
O=S(=O)(O)c1ccc2c(c1)C(C(Cl)(Cl)Cl)OC(C(Cl)(Cl)Cl)O2 (centres undefined),·,4,·,0.5%,·,0.2,-0.5%
O=C(Nc1ccc([N+](=O)[O-])cc1)C(c1ccccc1)c1ccccc1,·,3,·,3.3%,·,0.1,5.8%
O=c1[nH][nH]cc1C=NCc1cccc(C(F)(F)F)c1,-20,3,2.9,0.9%,11%,-0.7,-1.9%
O=C(Nc1ccc(Cl)cc1)N1CCCC(Cn2cccc2)C1 (centres undefined),-19,0,2.7,·,13%,-0.1,0.5%
CC(=O)NS(=O)(=O)c1ccc(NC(=O)c2cc3c(=O)n4ccccc4nc3s2)cc1,-3,3,4.4,·,38%[activator],0.1,0.2%
CN(CC(=O)Nc1c(Cl)cccc1Cl)C(=O)CNC(=O)c1ccco1,-3,-1,·,-0.8%,·,0.5,0.5%
COc1cc(NC(=O)CSc2nccc(C)n2)c(C)cc1[N+](=O)[O-],-4,3,2.5,0.8%,-15%,-0.3,1.6%
Cc1ccc(C)c(N2CCN(C(=O)CCc3nc(-c4ccccc4F)no3)CC2)c1,·,-9,·,-2.4%,·,0.9,0.1%
Cc1csc2nc(CNS(=O)(=O)N(C)C)cn12,-4,6,1.2,-0.9%,5%,0.3,3.9%
Cc1cc(NC(=O)CSc2nnc(-c3c[nH]c4ccccc34)n2-c2ccc(Cl)cc2)no1,1,-5,4.4,-18%,19%,0.2,24%[38.3 µM]
O=C(c1cccc(F)c1)N1CCC2(CC1)CCN(c1ccc(-c3ccccc3)cc1)CC2,·,·,0.9,·,32%[activator],·,1.5%
O=C(CSc1nnc(CCCN2C(=O)c3cccc4cccc(c34)C2=O)n1-c1ccccc1)N1CCCCC1,6,27,-0.3,?,2%,0.6,5.5%
CCCC(=O)Nc1ccc2c(c1)nc(CN1CCCC1)n2C,-18,?,-1.2,-1.7%,13%,0.6,-2.3%
O=C(Nc1ccc2c(c1)OCO2)c1cccc(S(=O)(=O)N2CCCC2)c1,-29,-23,-5.2,0.4%,-3%,-0.3,?
CCc1ccc(NC(=O)c2noc3c2CCC3)cc1,-8,19,-1.4,0.9%,-17%,1.0,0.2%
O=C(Nc1ccc2c(c1)nc1n2CCOC1)c1ccccc1,4,29,2.1,-7.0%,22%,0.0,2.7%
Clc1ccc(-c2csc(Nc3ccccc3)[n+]2Cc2ccco2)c(Cl)c1,-5,18,3.8,-0.5%,?,1.2,17%
O=C1NCC(COCc2ccco2)O1 (centres undefined),3,34,-11,0.3%,-6%,0.1,·
O=C(COc1ccc(N2C(=O)c3ccccc3C2=O)cc1)c1ccccc1,-2,8,-2.4,-0.6%,9%,0.9,1.0%
Cc1cccc(-n2c(C)cc(/C=C3/C(=N)N4C(c5ccccc5)=CSC4=NC3=O)c2C)c1,2,5,7.7,-1.3%,13%,0.6,-0.5%
Cc1nc(C)c(-c2ccc(SCc3ccccc3C)nn2)s1,-20,-5,-3.4,2.0%,-20%,0.8,5.5%
CCOC(=O)CSc1nnc(-c2c[nH]c3ccccc23)o1,-9,20,3.2,-2.0%,10%,-0.5,2.0%
CCC1CCCCN1C(=O)COC(=O)c1n[nH]c2ccccc12 (centres undefined),10,3,-2.4,?,-2%,-0.7,-2.3%
O=C(CC1SC(=NC2CCCCC2)NC1=O)Nc1ccccc1 (centres undefined),-4,-2,2.9,0.2%,-11%,0.1,·
Cc1occc1C(=O)N1CCCC(Nc2ccc(F)cc2)C1 (centres undefined),-12,36,0.2,-1.8%,6%,0.0,0.1%
COc1ccc(C)cc1NS(=O)(=O)c1ccccc1,·,4,·,·,·,1.9,1.1%
O=C1C2C3C=CC(C4CC34)C2C(=O)N1CCCCN1CCN(c2ccc(F)cc2)CC1 (centres undefined),·,11,·,0.9%,·,-0.5,0.2%
CN(C(=S)NC(=O)c1ccccc1)C1CCCCC1,-11,-12,-2.5,0.2%,7%,1.1,3.5%
CCOC(=O)c1c(N2C(=O)C3CC(C)=C(C)CC3C2=O)sc(C)c1C (centres undefined),-11,25,-1.6,0.2%,18%,-0.3,·
O=C(CCC(=O)Nc1ccc(F)cc1)N/N=C/c1c[nH]c2ccccc12,15,-1,-1.6,·,14%,-0.5,-1.7%
Cc1ccccc1OCC(=O)NCCCNC(=O)c1ccco1,-11,49,-2.9,·,14%,0.6,0.0%
O=C(NN1CCOCC1)c1ccc(Cl)cc1,8,-4,4.6,1.5%,15%,-0.5,1.6%
Cc1cccc(NC(=O)Cc2noc3ccccc23)c1,9,3,0.7,-0.1%,7%,-1.0,0.4%
COc1ccc(C(Nc2cc(C)ccn2)c2ccc3ccc(C)nc3c2O)cc1 (centres undefined),0,5,5.6,·,6%,1.0,5.0%
O=C1N=c2ccccc2=C1c1sc(Nc2ccc(O)cc2)nc1O,6,6,?,·,56µM*,-0.3,1.3%
O=C(NCc1ccco1)C1CCCN(S(=O)(=O)c2cccc3nonc23)C1 (centres undefined),6,-1,3.6,-19%,?,-0.7,-0.9%
CC(=Nc1ccc(Br)cc1)c1sc2ccccc2c1O,-2,31,?,-2.7%,32µM*,16,1.5%
COc1ccc2cnnc(SCC(=O)Nc3ccc(C(=O)O)cc3)c2c1OC,2,52,0.8,-5.0%,?,0.1,-0.1%
CCOc1ccc(NC2c3ccccc3C(=O)N2Cc2ccc3c(c2)OCO3)cc1 (centres undefined),3,39,2.5,-2.7%,1%,3.1,5.0%
COc1cc(OC)c(NC(=O)N2CCOCC2)cc1Cl,-27,-1,-1.8,28µM*,15%,-0.5,-1.4%
C#CCOCCOCCOCCNc1nc(N2CCN(C(=O)Cn3cc(CC(C)O)nn3)CC2)nc(N2CCN(C(=O)[C@H](C)n3cc(CCCN=C(N)N)nn3)CC2)n1 (some centres undefined),12,31,-0.6,0.7%,1%,0.5,-0.7%
Fc1cccc(Cc2c(-c3ccco3)nc3c4ccccc4ccn23)c1,·,·,·,5.4%,·,0.6,28%

# From PubChem BioAssay

# Rows were taken by chance, and some 4.4% of all compounds hit somewhere here.
